Vif A3G: inhibitors of Vif binding to APOBEC3G peptide, primary screen, biochemical, TR-FRET, GST-Vif 1-94, biotin-A3G peptide, dose response retest (AID 1117319); TR-FRET GST-Vif / biotin-A3G peptide binding; higher % means a stronger effect; test concentration not given here; strong numbers were not always called active; inhibition, %, or IC50 in µM where a hit was titrated; 0.57% of 260,000 active;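 active = above the screen mean plus three standard deviations and confirmed in dose response; inconclusive = results disagree or hit not tested in dose response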;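 note: Vif residues 1-94 fused to GST binding biotinylated APOBEC3G peptide 110-148; 0% = full assay without inhibitor and 100% = GST in place of GST-Vif; retest series ran down from 100 µM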
Beta cell apopt: beta cell apoptosis inhibition; INS-1E cytokine-induced death, ATP luminescence, 48 h; percent of positive-control rescue, neutral wells zero; 0.8% of 300,000 active; protection from apoptosis, % (test concentration not listed);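 active = all replicates at 75% or more, or half of them and the mean; inconclusive = half reach 75% but not the mean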;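 note: 0% = cytokine-treated negative control wells and 100% = positive control rescue; higher means more ATP so stronger rescue from cytokine killing; wells of about 40 µL received 100 nL stock; the first replicate is given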
RanGTP-Impb inh: disruptors of Ran-importin-beta complex formation – biochemical, FRET, CFP-Ran, YFP-importin-beta, homogeneous, primary screen. AID 2216. 1.1% of 300,000 active. inhibition, % (no concentration beside the values). cell-free CFP-Ran/YFP-importin-beta FRET ratio;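 active = most replicates above 15%; inconclusive = exactly half above 15%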;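 note: 0% = DMSO wells and 100% = Ran loaded with GDP instead of GTP; wells of about 40 µL received 100 nL stock; the first replicate is given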
A1 inh: inhibitors of the anti-apoptotic protein A1, read as caspase activation. MEF A1-2A-BIM cells, Caspase-Glo 3/7 luminescence, 3 h; percent of clofoctol response, vehicle zero. caspase activation, % (no concentration beside the values). 0.066% of 330,000 active. AID 2462;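 active = over half of replicate activation scores above 10%, or exactly half above 10 with the replicate mean above 10; inconclusive = replicate mean below 10 yet half the replicates above 10; inactive = over half of replicates below 10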;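 note: wells of about 30 µL received 50 nL stock; many hits fall short of the cut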
MLL AF4-AF9 inh: inhibitors of human MLL-AF4/AF9 interaction. P42568. AlphaScreen, biotin-AF4 peptide binding to FLAG-AF9. inhibition, % at 10 µM. 0.47% of 350,000 active;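 active = every replicate reaching a set inhibition limit, whatever the replicate mean, cut at about 25% in these data; inconclusive = mean inhibition reaches that limit but some replicates miss it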;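 note: 0% = plate neutral control median and 100% = total signal loss; the record names both 10 and 1 µM as test concentration; the first replicate is given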
Target sequence (P42568 whole entry, looked up): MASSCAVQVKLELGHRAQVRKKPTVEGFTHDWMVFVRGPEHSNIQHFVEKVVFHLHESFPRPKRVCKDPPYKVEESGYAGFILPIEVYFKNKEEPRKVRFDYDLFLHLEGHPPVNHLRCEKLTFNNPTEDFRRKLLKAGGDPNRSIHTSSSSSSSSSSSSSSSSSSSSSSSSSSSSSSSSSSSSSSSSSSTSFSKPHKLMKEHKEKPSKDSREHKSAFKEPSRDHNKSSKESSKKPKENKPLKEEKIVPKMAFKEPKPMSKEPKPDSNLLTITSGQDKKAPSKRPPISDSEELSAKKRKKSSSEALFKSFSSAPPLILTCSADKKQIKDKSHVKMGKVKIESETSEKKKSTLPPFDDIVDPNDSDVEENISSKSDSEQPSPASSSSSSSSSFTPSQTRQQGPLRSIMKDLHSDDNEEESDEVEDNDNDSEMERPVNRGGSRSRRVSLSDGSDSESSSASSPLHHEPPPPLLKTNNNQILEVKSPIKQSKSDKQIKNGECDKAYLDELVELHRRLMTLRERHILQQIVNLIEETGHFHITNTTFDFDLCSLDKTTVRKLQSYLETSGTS
Calb FLC: C. albicans growth modulation with fluconazole; C. albicans CaCi-2 (fluconazole-resistant clinical isolate) + fluconazole, Alamar Blue growth, 48 h; growth inhibition, % (test concentration not listed); 0.57% of 300,000 active; AID 1979;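 active = most replicates above 75%; inconclusive = exactly half above 75%; inactive = most below 75%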;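 note: all wells also contain fluconazole at 8 µg/ml as a sub-toxic cotreatment; 0% = median of DMSO wells and 100% = median of geldanamycin control wells; wells of about 8 µL received 7.5 nL stock; the first replicate is given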
LANA-H2A inh: blocks KSHV LANA binding to histone H2A/H2B. inhibition, % (test concentration not listed). 0.6% of 320,000 active. cell-free LANA-H2A/H2B peptide, fluorescence polarization. AID 2629; in the data active = inhibition mostly above about 10%, no sharp cut-off; inactive = mostly below about 6.7%;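 note: stock transfer was 7.5 nL into about 10 µL; 0% = median of vehicle wells and 100% = median of positive control wells; one replicate is shown; the record names a cut of 25% in any replicate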
T cruzi inh: blocks replication of Trypanosoma cruzi; T. cruzi beta-gal in NIH3T3, luminescence, 90 h; inhibition, % (test concentration not listed); 1.4% of 300,000 active;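 active = mean inhibition across valid replicates above about 55%, limit read from the data; inconclusive = mean below that limit but half or more replicates reach it; inactive = mean below it, under half of replicates reach it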;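 note: signal also drops with host cell toxicity which is not excluded here; 0% = plate median of DMSO wells and 100% = zero luminescence signal; higher percent means less beta-gal luminescence so fewer parasites; stock transfer was 50 nL into about 50 µL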
An asterisk follows results filed as active; ? = inconclusive; · = not tested or not shown; & = joins results of further samples.

SMILES	Vif A3G	Beta cell apopt	RanGTP-Impb inh	A1 inh	MLL AF4-AF9 inh	Calb FLC	LANA-H2A inh	T cruzi inh
O=C(CSc1nc(N2CCCCC2)nc(N2CCCCC2)n1)N1CCN(c2ccccc2)CC1	-3.2%	·	3.3	·	·	-3.1	·	47.4
O=c1c2ccccc2n2nnnc2n1-c1ccccc1	-4.5%	·	-0.8	0.3	·	-2.7	-1.9	-9.8
CCN(CC)C(=O)Oc1ccc(Br)cc1C(=O)Nc1ccc(F)c(Cl)c1	·	10.7	1.7	1.6	-0.4	6.8	1.5	19.1
O=C(NCCc1ccc(Cl)cc1)c1ccc2nc(N3CCOCC3)sc2c1	·	3.6	3.9	0.5	-8.3	-14.0	2.0	8.2
O=C(NCc1ccc(F)cc1)N[C@@H](Cc1ccccc1)C(=O)O	12.7%	-3.8	2.2	0.3	·	-7.7	-0.7	-8.9
COc1ccc(C)cc1N(CC(=O)NC(C)c1ccccc1)S(C)(=O)=O (stereo not drawn)	·	-3.5	-1.4	0.6	0.3	4.2	0.6	0.8
Cc1ccc(N(CCCCN2C(=O)c3ccccc3C2=O)C(=O)c2cccs2)cc1	-1.8%	-4.1	1.4	0.3	·	-2.4	-3.1	9.2
O=C(CNc1ccc(Br)cc1)c1ccc(O)cc1	-1.2%	-5.2	-0.9	-2.1	4.1	-2.9	-2.6	-20.2
CN(C(=O)COc1ncnc2ccccc12)C1CCCCC1	·	-2.1	·	-0.3	-3.0	·	-4.0	·
Cc1cc(C)cc(OCC(=O)Nc2ccc(N3CCCCC3)cc2)c1	12.9%	·	-2.7	0.3	2.2	5.7	2.3	10.8
O=C(NCc1ccccc1)C1=C[C@H](C2CC2)C[C@H](OCc2ccc(CO)cc2)O1	32.6%	-1.9	3.8	-0.1	-12.0&-4.7	-4.6	3.4	15.0
CS(=O)(=O)N(CC(=O)N/N=C/c1cc2c(cc1Br)OCO2)c1ccccc1Br	0.7%	3.2	1.5	0.2	·	2.5	0.6	13.7
O=C(CN1CCC(C(=O)c2ccc(Cl)cc2)CC1)Nc1ccc2c(c1)OCCO2	-3.7%	0.4	0.8	-0.8	·	-11.3	-1.7	27.2
COc1ccc(NC(=S)NNC(=O)c2cccs2)cc1	·	2.9	7.9	-0.9	·	21.1	-2.1	-1.6
Cc1c(C)n(CCCN(C)C)c2ncnc(Nc3ccccc3)c12	-7.2%	4.1	1.5	-0.1	6.1	-0.7	3.5	?
CNS(=O)(=O)c1cn(CC(=O)NCc2cccc(OC)c2)cc1S(=O)(=O)NC	-5.8%	-2.8	6.4	0.3	-0.4	4.5	4.6	6.0
O=C(Nc1ccc(F)cc1)c1csc(Cc2ccccc2)n1	-4.7%	-9.4	2.1	-1.1	-2.1	5.0	-2.3	-4.3
COc1cc(NC(=O)c2ccccn2)cc(OC)c1OC	-7.6%	-7.4	-2.5	0.0	0.1	-2.9	-3.5	-3.9
COCCN(CC1CCCN(C2Cc3ccccc3C2)C1)C(=O)CCC(N)=O (stereo not drawn)	·	-5.3	-0.1	-0.4	0.8	1.2	0.3	51.7
O=[N+]([O-])c1ccc(Cl)c(S(=O)(=O)Nc2ccc(-c3ccc(N4CCOCC4)nn3)cc2)c1	-0.8%	-8.6	-3.9	-1.7	-0.6	15.9	·	-6.5

By substructure, the compounds so far with a halogen.
SMILES	Vif A3G	Beta cell apopt	RanGTP-Impb inh	A1 inh	MLL AF4-AF9 inh	Calb FLC	LANA-H2A inh	T cruzi inh
CCN(CC)C(=O)Oc1ccc(Br)cc1C(=O)Nc1ccc(F)c(Cl)c1	·	10.7	1.7	1.6	-0.4	6.8	1.5	19.1
O=C(NCCc1ccc(Cl)cc1)c1ccc2nc(N3CCOCC3)sc2c1	·	3.6	3.9	0.5	-8.3	-14.0	2.0	8.2
O=C(NCc1ccc(F)cc1)N[C@@H](Cc1ccccc1)C(=O)O	12.7%	-3.8	2.2	0.3	·	-7.7	-0.7	-8.9
O=C(CNc1ccc(Br)cc1)c1ccc(O)cc1	-1.2%	-5.2	-0.9	-2.1	4.1	-2.9	-2.6	-20.2
CS(=O)(=O)N(CC(=O)N/N=C/c1cc2c(cc1Br)OCO2)c1ccccc1Br	0.7%	3.2	1.5	0.2	·	2.5	0.6	13.7
O=C(CN1CCC(C(=O)c2ccc(Cl)cc2)CC1)Nc1ccc2c(c1)OCCO2	-3.7%	0.4	0.8	-0.8	·	-11.3	-1.7	27.2
O=C(Nc1ccc(F)cc1)c1csc(Cc2ccccc2)n1	-4.7%	-9.4	2.1	-1.1	-2.1	5.0	-2.3	-4.3
O=[N+]([O-])c1ccc(Cl)c(S(=O)(=O)Nc2ccc(-c3ccc(N4CCOCC4)nn3)cc2)c1	-0.8%	-8.6	-3.9	-1.7	-0.6	15.9	·	-6.5

(list continues)
SMILES	Vif A3G	Beta cell apopt	RanGTP-Impb inh	A1 inh	MLL AF4-AF9 inh	Calb FLC	LANA-H2A inh	T cruzi inh
COCCNC(=O)c1ccc(Cl)c(S(=O)(=O)Nc2cccc(C)c2C)c1	·	-2.0	5.1	0.1	0.7	25.4	-2.3	4.6
Cc1cccn2c(=O)c(/C=C(\C#N)C(=O)NCc3ccco3)c(N3CCC(C(N)=O)CC3)nc12	·	-0.7	3.2	-0.2	-5.6	8.0	-0.3	6.8
COCCn1c(C)c(C)c(S(=O)(=O)c2ccccc2)c1N	-0.2%	-7.1	-1.3	-0.2	3.5	12.4	0.7	-5.4
C=CCN=C1S/C(=C/c2ccc([N+](=O)[O-])cc2)C(=O)N1CC=C	-3.8%	1.3	2.3	0.3	5.1	20.3	-0.7	1.0
CC(C)(C)OC(=O)N1CCN(C(=O)c2[nH]cnc2C(=O)Nc2cccc(Cl)c2)CC1	·	-2.1	·	1.8	-3.0	·	-2.6	·
O=C(COc1ccc(Cl)cc1)NCc1ccc(F)cc1	0.1%	-4.5	0.3	0.8	-2.6	-2.1	2.0	-1.5
Cc1ccc(NC(=O)CSc2nnnn2-c2ccc3c(c2)OCO3)cc1C	27.5%	-16.9	2.5	0.4	·	-9.4	-3.1	41.7
CCCCc1cc(=O)oc2c(CN(C)C)c(O)ccc12	20.9%	·	9.7	0.2	·	-0.7	-5.5	-14.9
Cc1noc(C)c1COc1ccc(C(=O)N2CCCC(C(F)(F)F)C2)cc1 (stereo not drawn)	·	-0.4	-0.8	0.9	-3.9	5.9	5.0	-4.9
OCC[C@@H]1C[C@H](O)[C@@H](O)[C@]2(OCCc3ccccc32)O1	·	0.7	3.1	-0.6	-0.4	3.3	-1.7	-5.0
C/C=C/c1ccc(Oc2nnnn2-c2ccc(C(=O)O)cc2)c(OC)c1	31.5%	-5.0	-2.3	1.0	·	2.2	1.7	-2.5
C=CCSc1nc(-c2ccccc2)c(C#N)c(=O)[nH]1	-6.1%	-4.2	·	0.3	·	-10.9	7.2	1.8
Cc1ccc(-n2nnnc2/C=C\Nc2cc(C)on2)cc1	-0.1%	0.9	1.2	0.8	·	-8.0	1.8	6.8
Cc1ccc(NC(=O)COC(=O)Cn2ccc(=O)[nH]c2=O)cc1C	·	-4.5	·	1.2	0.7	·	1.5	·
COc1ccc(N2CC(NS(=O)(=O)c3cccnc3)CC2=O)cc1 (stereo not drawn)	-10.7%	-2.5	3.6	0.3	-1.7	2.0	2.6	-10.0
CCc1c(C(=O)N/N=C/c2ccsc2)csc1C	3.1%	-6.5	2.7	-2.4	·	-9.8	-1.0	9.7
CC(C)(C)c1ccc(Cn2nnc3c(=O)[nH]c(C4CCN(C(=O)c5ccco5)CC4)nc32)cc1	2.0%	·	4.1	·	2.7	-1.4	·	7.6
CCc1nc(N2CCOCC2)c(C#N)c2c1CCCC2	2.9%	1.0	0.3	0.4	·	-3.8	1.4	12.0
Cc1onc(-c2ccccc2)c1C(=O)Nc1ccnn1C1CCCCC1	0.0%	1.0	1.6	1.0	·	30.0	2.9	9.1
O=C(NCc1cccnc1)c1csc2c1CCCC2	0.6%	-7.8	3.0	0.7	·	0.2	1.2	2.1
Cc1ccc(-c2nc(Nc3ccc(O)cc3)c3ccccc3n2)cc1	-7.1%	-5.3	5.0	-0.6	8.4	0.3	5.2	42.3
O=C1CCN(Cc2ccc(Cl)cc2)N1	-10.8%	-6.8	4.9	0.1	-0.6	-2.8	2.2	3.4
CN=Cc1cc(-c2ccccc2)sc1O	9.2%	·	-1.7	-1.8	·	1.2	-1.9	-5.7
CN1CCC(OC(=O)COc2ccc(F)cc2)CC1	·	-3.2	?	0.8	-1.3	0.5	-1.4	-8.1
CC(=O)c1c(C)nc(-c2ccccc2)nc1NC(=O)Cc1ccccc1	2.2%	8.7	5.3	0.4	3.2	30.4	2.5	20.6
Cc1onc(-c2ccccc2)c1C(=O)NCc1ccc(Cl)cc1	-4.1%	0.8	-0.2	-1.1	-1.5	-3.4	-1.2	4.8
Cc1ccc(-c2csc(NC(=O)C3CCN(S(=O)(=O)c4cccs4)CC3)n2)cc1	·	56.6	-0.3	-3.0	·	1.3	-2.2	12.0
CCOC(=O)C1CCCN(Cc2ccc(-c3ccccc3)cc2)C1 (stereo not drawn)	·	-0.4	2.0	0.6	1.1	-9.8	-10.0	68.2*
O=C(NCc1ccco1)C1CC(c2ccc(C(F)(F)F)cc2)=NO1 (stereo not drawn)	·	2.4	2.3	0.1	0.0	-11.7	2.3	-14.3
CCOc1ccc(C(=O)OC(C)CN2CCN(C)CC2)cc1 (stereo not drawn)	·	·	-0.9	0.9	5.2	-17.1	-3.1	41.8
O=C(CCc1nc2cccnc2n1Cc1ccccc1)NCCc1ccc(Cl)cc1	-4.9%	-7.4	-6.1	1.0	·	14.6	0.7	-2.7
CSc1cccc(NC(=S)N(Cc2ccc(C)cc2)Cc2cccnc2)c1	3.3%	-1.2	-5.1	0.1	-1.8	-19.3	-5.8	28.1
O=C(C/C=N/OCc1ccc(Cl)cc1Cl)c1ccccc1	1.4%	-5.8	-1.7	-0.9	·	-1.1	-0.4	17.9
Cc1ccc(NC(=O)COC(=O)CCn2c(C)csc2=O)cc1S(=O)(=O)N1CCOCC1	-3.3%	-14.9	3.8	0.4	-0.7	9.4	-7.8	-4.7
CCCCn1c(=O)[nH]c(=O)c2c1nc(-c1ccccc1F)n2Cc1ccccc1	4.3%	1.7	-5.9	-1.8	4.0	25.3	-1.2	14.9
Cc1nc(N2CCCCC2)c2c(C)c(C(=O)Nc3ccccc3C(F)(F)F)sc2n1	-15.0%	-1.7	?	0.9	-1.0	5.9	1.9	48.8
O=S(=O)(Cc1ccccc1)Nc1ccc(S(=O)(=O)N2CCCC2)cc1	·	1.3	1.8	0.1	-6.9	1.9	1.6	-1.2
Cc1cc(SCC(=O)NC2(C#N)CCCCC2)nc2c(C)cccc12	·	-2.6	-5.9	0.0	-24.1	·	-12.3	-0.4
COC(=O)C1=C(C(=O)OC)C(c2ccccc2O)c2sc(=O)[nH]c2S1 (stereo not drawn)	-8.4%	·	8.4	-0.7	5.2	15.3	-1.6	-16.3
COc1ccccc1NS(=O)(=O)c1cc([N+](=O)[O-])ccc1N/N=C/c1sc(N2CCOCC2)nc1-c1ccccc1	·	26.4	-7.1	0.1	-4.3	36.6	-0.6	25.3

Source: PubChem BioAssay (several laboratories)
